Screening results from PubChem.
CtBP-E1A inh = inhibitors of CtBP/E1A interaction. AlphaScreen GST-E1A/His-CtBP binding, 1536-well; active compounds read low; control for the full effect not named in the record. activity change, % (concentration not given with the values). hit rate 0.49% among 340,000; in the data active means activity change below about -65%; inconclusive means about -30% to -65%; inactive means above about -30%; also: % is scaled to controls: 0 for no effect and ±100 for the full control effect
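In 5 uL wells, 23 nL compound meets equimolar GST-E1A and His-CtBP (5X stock 125 nM each) for 2 h, 37 °C. Beads (5X, 50 ug/mL) then 1 h, 37 °C, dark.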
D2 PAM = positive allosteric modulators of human D2 dopamine receptor; P14416; DiscoveRx D2 beta-arrestin cells, luminescence, 90 min; 100% = 57 uM dopamine signal; potentiation, % (concentration not given with the values); hit rate 0.23% among 360,000; active = potentiation of 50% or more; inconclusive = 30% to 50%; inactive = 30% or less;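 also: compound concentration not given in the record; tested on top of an EC20 dose of dopamine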
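PathHunter beta-arrestin assay in DiscoveRx D2 cells. Compounds were added with an EC20 of dopamine (50 nM final) for 90 min at 37 deg C. Luminescence was read 1 h after detection reagent, with 57 uM dopamine as the EC100 control.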
D2 agonist = human D2 receptor agonism in beta-arrestin assay | P14416 | DiscoveRx PathHunter D2 beta-arrestin, luminescence, 90 min; 100% = 57 uM dopamine signal | activation, % (concentration not given with the values) | hit rate 0.084% among 360,000 | AID 624465; in the data active = activation above about 40%; inconclusive = about 15% to 40%; inactive = below about 15%; also: compound concentration not given in the record; the text of the record calls up to 30% inactive
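DiscoveRx PathHunter D2 beta-arrestin cells (2,100/well) attached overnight, then compound-stimulated 90 min at 37 C in HBSS/10 mM HEPES/0.1% Tween-20 buffer; beta-galactosidase complementation read by luminescence after 1 h at ambient temperature. Dopamine 57 uM final (EC100) as control.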
Six1-Eya2 inh = blocks human Six1 binding to Eya2 | Q15475+O00167 | AlphaScreen GST-Six1/His-Eya2 binding, biochemical; active compounds read low; control for the full effect not named in the record | activity change, % (concentration not given with the values) | hit rate 0.56% among 360,000 | AID 651725; in the data active = activity change below about -65%; inconclusive = about -30% to -65%; inactive = above about -30%; also: % is scaled to controls: 0 for no effect and ±100 for the full control effect
Target sequence (O00167 whole entry, looked up): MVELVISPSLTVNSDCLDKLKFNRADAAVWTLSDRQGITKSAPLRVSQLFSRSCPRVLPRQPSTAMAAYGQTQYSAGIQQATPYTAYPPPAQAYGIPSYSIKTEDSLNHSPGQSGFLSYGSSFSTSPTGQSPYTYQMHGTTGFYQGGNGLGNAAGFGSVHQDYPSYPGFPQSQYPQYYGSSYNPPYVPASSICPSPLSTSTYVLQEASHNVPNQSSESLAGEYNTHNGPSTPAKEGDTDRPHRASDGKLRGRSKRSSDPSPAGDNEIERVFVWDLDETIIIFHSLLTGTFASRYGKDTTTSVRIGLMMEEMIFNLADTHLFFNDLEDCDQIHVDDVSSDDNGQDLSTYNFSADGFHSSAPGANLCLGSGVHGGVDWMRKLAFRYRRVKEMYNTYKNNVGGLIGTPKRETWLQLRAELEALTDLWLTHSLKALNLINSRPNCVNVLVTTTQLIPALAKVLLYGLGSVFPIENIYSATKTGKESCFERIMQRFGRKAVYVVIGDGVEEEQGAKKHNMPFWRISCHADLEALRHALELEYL
Target sequence (Q15475 whole entry, looked up): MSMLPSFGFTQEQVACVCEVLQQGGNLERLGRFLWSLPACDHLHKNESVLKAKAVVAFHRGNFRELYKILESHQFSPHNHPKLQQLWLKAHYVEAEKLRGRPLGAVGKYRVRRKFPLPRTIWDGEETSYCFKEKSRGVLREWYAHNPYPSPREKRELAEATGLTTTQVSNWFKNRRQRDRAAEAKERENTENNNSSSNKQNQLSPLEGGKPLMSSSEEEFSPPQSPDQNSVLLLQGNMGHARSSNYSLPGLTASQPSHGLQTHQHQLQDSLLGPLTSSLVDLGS
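Six1/Eya2 binding was read as AlphaScreen signal after compounds were pinned into GST-Six1 plus His-tagged Eya2 (5X stock 250/500 nM) in pH 8.0 Tris/NaCl/TCEP buffer, beads added, then incubated 1 h, 37 C, dark.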
TRPML1 ag = activates the human TRPML1 channel. hit rate 0.12% among 410,000. TRPML1-expressing cells, Ca2+ dye fluorescence, FDSS; host cell line not named in the record; reference of the full effect not given here. AID 624414. activation, % (concentration not given with the values); in the data active = activation above about 50%; inconclusive = about 30% to 50%; inactive = below about 30%; also: 0% is about no effect; the text of the record puts the active cut at 80%
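Agonist activity was taken from a 110 s kinetic Ca2+ dye read on the FDSS after pinning compounds onto TRPML1-DL cells. The cells were seeded at 1,500/well with Tet inducer, incubated about 16 h, then dye-loaded at room temperature.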
PINK1 modulator = modulators of PINK1 expression. Potency, µM (top dose mostly 76.6 µM), for inactives: at the top dose activation (PINK1 increase), actives largely listed as activators. AID 624263. hit rate 0.2% among 410,000. PINK1 immunofluorescence, high-content cytometry, 24 h; active = well fitted activation curve with a large enough effect; inconclusive = small, poorly fitted or top-dose-only effect; inactive = flat fitted curve, though single readings scatter; cell line not stated here;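 also: potency is read from the fitted curve at half-maximal effect; % of control where 0% means no effect; nearly all actives have a fitted effect of over 65% in size; a mitochondrial uncoupler was the plate control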
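Measures PINK1 amount and localization on or inside mitochondria by immunofluorescence. Stable cells get compounds at 5 concentrations for 24 hours before fixation and staining; CCCP controls included.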
Numbers without * were called inactive; ? = inconclusive; . = not tested or not shown; [ ] = remark or other dose.

item | SMILES | CtBP-E1A inh | D2 PAM | D2 agonist | Six1-Eya2 inh | TRPML1 ag | PINK1 modulator
1 | COc1cccc(CNC(=O)CCC2CCCN(C(=O)c3ccc(C)nc3)C2)c1 (stereo not given) | 8 | 4 | 0.7 | 1 | -0.5 | 0.7%
2 | COc1ccc(-c2nnc(SCC(=O)N3CCOCC3)o2)cc1 | -1 | 2 | 0.8 | 12 | -0.1 | -0.6%
3 | CCOc1cc(N2CCOCC2)c(OCC)cc1NC(=O)COC(=O)[C@H](Cc1c[nH]c2ccccc12)NC(C)=O | -2 | 6 | -2.4 | 0 | 0.1 | 0.3%
4 | CCOC(=O)CCc1c(C)c2ccc(OCc3nn[nH]n3)c(C)c2oc1=O | ? | 7 | -1.4 | ? | 1.4 | -0.3%
5 | CCC1(c2ccc(F)cc2)NC(=O)N(CC(=O)Nc2cc(C)on2)C1=O (stereo not given) | 0 | 1 | 6.3 | 4 | 2.3 | 1.1%
6 | O=C(NCCc1ccccc1)c1c[nH]c2ccccc2c1=O | -5 | 3 | -4.7 | -4 | -0.1 | 3.1%
7 | CCOC(=O)c1cccc(NC(=O)c2c(NCc3ccccc3)[nH]c(=O)[nH]c2=O)c1 | 2 | -40 | -1.7 | 2 | -0.5 | 9.0%
8 | CCOC(=O)N1CCC(N2CC34C=CC(O3)C(C(=O)Nc3ccc(F)cc3)C4C2=O)CC1 (stereo not given) | 0 | -7 | 4.2 | 3 | -0.1 | 0.8%
9 | COc1ccc(OC)c(Cc2nnc(CCC(=O)NCc3nc4ccccc4s3)o2)c1 | 0 | -7 | -0.7 | 10 | 0.2 | -0.7%
10 | Cc1ccc(-c2nc(NCc3ccc(F)cc3)n(S(C)(=O)=O)n2)cc1 | 0 | -5 | -2.9 | -3 | 1.9 | 5.3%
11 | O=C(CNC(=O)c1ccc(Br)o1)NCc1ccccc1Cl | 2 | -15 | -3.3 | -11 | -0.1 | 0.1%
12 | NC(=O)c1ccsc1NC(=O)COC(=O)COc1ccc(C=O)cc1 | -4 | -4 | 5.4 | 1 | 0.0 | -0.8%
13 | CCOc1ccccc1N(CC(=O)Nc1ccc(S(=O)(=O)N2CCOCC2)cc1)S(=O)(=O)c1ccccc1 | 10 | 0 | 8.2 | 6 | 0.4 | 4.1%
14 | O=C(c1ccccc1)c1c[nH]c(C(=O)C(Cl)(Cl)Cl)c1 | 1 | 7 | 0.2 | 9 | -0.4 | 1.7%
15 | COc1ccc(C)cc1-n1nnnc1SCn1nnc2ccccc2c1=O | 2 | -1 | -3.0 | 0 | 0.0 | -1.6%
16 | Cc1ccc(NC(=O)c2ccc3[nH]c(=O)c(=O)[nH]c3c2)nc1 | . | -4 | -3.7 | ? | 2.0 | -1.7%
17 | O=C(COc1ccc(F)cc1)N(CC1=CCS(=O)(=O)C1)c1ccccc1 | 1 | 4 | -3.3 | -1 | -1.1 | -0.7%
18 | CC(C)(C)c1ccc(OCC(=O)N/N=C/c2cc(Br)ccc2OC(=O)c2ccco2)cc1 | -2 | -11 | -8.1 | -2 | -0.7 | ?
19 | COCCNC(=O)c1ccc(NC(=O)C2(c3ccccc3)CCCC2)cc1 | 7 | -15 | -7.8 | -12 | 1.0 | -1.5%
20 | Cc1ccc(C(=O)/C=C/c2ccc(-c3ccccc3[N+](=O)[O-])o2)cc1 | 7 | -10 | -0.4 | -10 | -0.1 | -1.5%[38.3 µM]
21 | O=C(COC(=O)C1CCN(c2ccc(C(F)(F)F)cn2)CC1)Nc1cc(F)ccc1F | 8 | 1 | -8.7 | 3 | 2.2 | -3.1%
22 | CN1CCN(CC(O)COC(c2ccc(Cl)cc2)c2ccc(Cl)cc2)CC1 (stereo not given) | . | -11 | -3.9 | -3 | 5.9 | 1.5%
23 | CCCCn1c(N)c(N(C(=O)CSc2nnnn2-c2ccc(C)cc2)C2CCCC2)c(=O)[nH]c1=O | 1 | -1 | 4.9 | 8 | 1.9 | -0.5%
24 | CC(NS(=O)(=O)c1ccccc1)C(c1cccs1)N1CCN(C)CC1 (stereo not given) | 18 | -13 | -0.3 | 5 | 0.7 | -7.3%[38.3 µM]
25 | COc1ccccc1OCc1ccc(C(=O)NC2CCCCC2)o1 | 2 | -7 | -4.7 | 6 | -0.8 | 1.1%
26 | COc1cc(Cl)ccc1OC1(C)CCN(Cc2ccc3ccccc3c2)C1 (stereo not given) | -4 | -1 | 4.8 | -6 | 2.8 | ?
27 | CSCCC(NC(=O)c1ccc(Cl)cc1Cl)C(=O)N1CCCCCCC1 (stereo not given) | 2 | 17 | -3.0 | 0 | -0.7 | 1.0%
28 | CCCCn1nnnc1C(c1ccccc1)N1CCN(c2ccccn2)CC1 (stereo not given) | 1 | . | . | -3 | 2.4 | -0.8%
29 | CCn1c(C(=O)NCc2cccnc2)cc2sc(Cl)cc21 | -3 | -5 | -1.4 | -11 | 1.1 | 1.5%[38.3 µM]
30 | CCCC1(c2ccccc2)NC(=O)N(CC(=O)NCc2ccc(OC)cc2)C1=O (stereo not given) | -9 | -1 | -0.1 | -8 | 1.7 | -3.1%
31 | O=C(Nc1cc(C(=O)Nc2ccccc2C(=O)O)cc(C(=O)Nc2ccccc2C(=O)O)c1)c1ccccc1 | ? | -8 | -1.8 | -69* | 1.2 | 1.5%
32 | CN1CCN(C(=O)C2CC(=O)N(c3ccc(F)c(Cl)c3)C2)CC1 (stereo not given) | 1 | -4 | 3.9 | -6 | -0.1 | 1.4%
33 | CC(=O)N(CCc1ccccc1C)Cc1cc2ccc(C)cc2[nH]c1=O | -24 | -7 | 0.4 | 11 | 7.4 | -0.9%
34 | COc1cc2c(cc1OC)CN(C(=O)c1ccccc1C(=O)O)CC2 | 7 | -10 | -2.7 | -1 | -0.1 | 0.9%
35 | COc1ccc(CC(=O)N(c2ccccc2)c2nc(C)cs2)cc1 | -1 | 11 | 2.6 | -2 | -0.2 | 0.7%
36 | Cc1[nH]c(=O)[nH]c1C(=O)CCCCC(=O)O | -3 | -3 | -0.6 | 10 | 0.4 | 3.2%
37 | Cc1cc(=O)oc2c3c(cc(OCC(=O)NCCC(=O)N[C@@H](C)C(=O)O)c12)OC(C)(C)CC3 | ? | -7 | -2.1 | ? | 0.0 | -0.9%
38 | COc1ccc(N(CC(=O)NCCc2ccc(OC)c(OC)c2)S(=O)(=O)c2ccc(OC)c(OC)c2)cc1 | 4 | 4 | -0.6 | -3 | 0.0 | 3.6%
39 | CN(CC(=O)NCc1cccs1)CC(=O)Nc1ccc(F)c(F)c1F | 6 | 17 | 0.6 | 1 | 0.0 | -2.0%
40 | CSc1cccc(NC(=O)c2ccc(Cl)nc2)c1 | 1 | -20 | -2.5 | -4 | -1.4 | -1.4%
41 | CCOC(=O)[C@H]1[C@H]2COc3cc(OC)ccc3[C@@H]2N2C(=O)CN(C)C(=O)[C@@]12C | 7 | -9 | -4.1 | 1 | -0.9 | 0.2%
42 | COc1ccc(-n2nc(C(=O)NCC(=O)NC3CCCCC3)c3ccccc3c2=O)c(OC)c1 | -16 | -9 | -13 | -5 | -1.3 | 13%
43 | Cc1cccc(OCC(=O)NC(=S)N2CCCc3ccccc32)c1 | 10 | 0 | -0.9 | -26 | -0.4 | .
44 | Cn1c(=O)c2c(SCC(=O)N3CCOCC3)nc(-c3ccccc3F)nc2n(C)c1=O | 4 | 0 | -3.5 | 5 | 0.0 | ?
45 | NC(=O)Cc1nc2scc(-c3ccccc3)c2c(=O)[nH]1 | -3 | -1 | 0.8 | ? | 0.1 | 0.7%
46 | COCC(C)OC(=O)C(C#N)c1nc2ccccc2nc1N1CCN(Cc2ccccc2)CC1 (stereo not given) | -14 | -13 | -1.1 | -2 | 0.4 | 0.6%
47 | CC(=O)Nc1nc(SCC(=O)NCc2ccc(F)cc2)[nH]c(=O)c1NC(=O)c1cccs1 | . | -8 | -4.9 | -14 | 0.7 | -0.7%
48 | Cc1cc(OCC(=O)NCCc2ccc(S(N)(=O)=O)cc2)c2c(C)c(C)c(=O)oc2c1 | -3 | -9 | 4.3 | 2 | 0.8 | 4.4%
49 | Cc1c(CCOC(=O)c2cc([N+](=O)[O-])cc([N+](=O)[O-])c2)sc[n+]1CC(=O)c1ccccc1 | -3 | -5 | ? | -8 | 3.4 | -0.2%
50 | CCOC(=O)c1cc(C)nnc1C(=O)OCC | 5 | 2 | -2.7 | 1 | -0.1 | -1.0%
51 | Cn1cnc([N+](=O)[O-])c1Oc1ccccc1 | -4 | -12 | -1.5 | -3 | 1.1 | 1.8%
52 | CCOc1ccccc1NC(=O)c1ccccc1-c1nc(-c2ccccc2)no1 | 1 | -12 | -3.4 | 9 | 2.4 | -1.9%
53 | CN1CCN(C2=C(Cl)C(=O)C(c3cnc(N4CCCCC4)s3)=C(Cl)C2=O)CC1 | -14 | 24 | ? | -11 | 0.4 | 0.4%
54 | O=C(CCn1c2c(c3ccccc31)CCCC2)NNC(=O)c1cccc([N+](=O)[O-])c1 | -8 | -1 | 1.0 | -17 | 1.3 | 5.3%
55 | Cc1ccc(OCC(=O)N(Cc2cccc(Cl)c2)C2CCS(=O)(=O)C2)cc1C (stereo not given) | -17 | -8 | 0.5 | -6 | 1.8 | -1.1%
56 | Cc1ccc(-n2nc(C)c3c(C)c(CCC(=O)NCc4ccccc4)c(C)nc32)cc1 | 4 | -5 | -2.3 | -6 | -0.3 | 12%
57 | CCOC(=O)C1CCN(C(=O)c2cccc(NC3=NC4CS(=O)(=O)CC4S3)c2)CC1 (stereo not given) | 7 | 0 | 4.1 | 5 | 0.0 | 0.0%
58 | Cc1cc(C)cc(N(CC(=O)NC2CCCC2)C(=O)CNC(=O)c2cccs2)c1 | 19 | -4 | -0.6 | 30 | 0.3 | -1.1%
59 | CC(C)(C)c1ccc(OCCC(=O)NNC(=O)c2ccccc2)cc1 | -17 | 3 | 2.9 | -4 | 0.4 | 0.8%

Entries listed above that bear a hit mark in Six1-Eya2 inh.
no.	compound	CtBP-E1A inh	D2 PAM	D2 agonist	Six1-Eya2 inh	PINK1 modulator
31	O=C(Nc1cc(C(=O)Nc2ccccc2C(=O)O)cc(C(=O)Nc2ccccc2C(=O)O)c1)c1ccccc1	?	-8	-1.8	-69*	1.5%

Reprinted at random: 5 records from the list
item | SMILES | CtBP-E1A inh | D2 PAM | D2 agonist | Six1-Eya2 inh | TRPML1 ag | PINK1 modulator
58 | Cc1cc(C)cc(N(CC(=O)NC2CCCC2)C(=O)CNC(=O)c2cccs2)c1 | 19 | -4 | -0.6 | 30 | 0.3 | -1.1%
40 | CSc1cccc(NC(=O)c2ccc(Cl)nc2)c1 | 1 | -20 | -2.5 | -4 | -1.4 | -1.4%
38 | COc1ccc(N(CC(=O)NCCc2ccc(OC)c(OC)c2)S(=O)(=O)c2ccc(OC)c(OC)c2)cc1 | 4 | 4 | -0.6 | -3 | 0.0 | 3.6%
27 | CSCCC(NC(=O)c1ccc(Cl)cc1Cl)C(=O)N1CCCCCCC1 (stereo not given) | 2 | 17 | -3.0 | 0 | -0.7 | 1.0%
5 | CCC1(c2ccc(F)cc2)NC(=O)N(CC(=O)Nc2cc(C)on2)C1=O (stereo not given) | 0 | 1 | 6.3 | 4 | 2.3 | 1.1%
